Screening results: PubChem, National Center for Advancing Translational Sciences (NCATS)
ClpP mod: qHTS Assay for Activators of ClpP | purified B. subtilis ClpP, FRET peptide cleavage, 20 min | Potency, µM (highest dose often 57.5 µM), inactives show at the top dose activity change, negative = active | 340,000 compounds, 1.9% hits | AID 651965, 2013; active = well fitted falling curve with a large enough effect; inconclusive = small, poorly fitted or top-dose-only effect; inactive = no such curve, though single readings can be large or run the other way; also: potency is read from the fitted curve at half-maximal effect; the source files actives as falling curves though it sought activators and does not explain the sign; nearly all actives have a fitted effect of over 65% in size; many hits overshoot -100%
Target sequence (P80244 whole entry, looked up): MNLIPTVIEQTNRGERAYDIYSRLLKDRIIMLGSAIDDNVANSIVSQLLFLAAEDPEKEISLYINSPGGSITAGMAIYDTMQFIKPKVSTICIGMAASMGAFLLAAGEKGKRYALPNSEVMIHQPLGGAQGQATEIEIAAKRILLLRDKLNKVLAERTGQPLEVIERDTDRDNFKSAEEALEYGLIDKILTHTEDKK
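Buffer: 100 mM Tris/HCl pH8, 100 mM KCl, 0.05% low protease BSA, 2.5% glycerol, 0.01% Tween-20. ClpP 10 microg/mL final; 20 min RT; delta FRET normalized to ADEP and DMSO controls.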
D2 agonist: Beta-Arrestin HTS for Positive Allosteric Modulators of the Human D2 Dopamine Receptor: Agonists; 360,000 compounds, 0.084% hits; D(2) dopamine receptor (Homo sapiens), P14416; AID 624465, 2012; DiscoveRx PathHunter D2 beta-arrestin, luminescence, 90 min; 100% = 57 uM dopamine signal; activation, % (concentration not given with the values); in the data active = activation above about 40%; inconclusive = about 15% to 40%; inactive = below about 15%; also: the text of the record calls up to 30% inactive
Target sequence (P14416 whole entry, looked up): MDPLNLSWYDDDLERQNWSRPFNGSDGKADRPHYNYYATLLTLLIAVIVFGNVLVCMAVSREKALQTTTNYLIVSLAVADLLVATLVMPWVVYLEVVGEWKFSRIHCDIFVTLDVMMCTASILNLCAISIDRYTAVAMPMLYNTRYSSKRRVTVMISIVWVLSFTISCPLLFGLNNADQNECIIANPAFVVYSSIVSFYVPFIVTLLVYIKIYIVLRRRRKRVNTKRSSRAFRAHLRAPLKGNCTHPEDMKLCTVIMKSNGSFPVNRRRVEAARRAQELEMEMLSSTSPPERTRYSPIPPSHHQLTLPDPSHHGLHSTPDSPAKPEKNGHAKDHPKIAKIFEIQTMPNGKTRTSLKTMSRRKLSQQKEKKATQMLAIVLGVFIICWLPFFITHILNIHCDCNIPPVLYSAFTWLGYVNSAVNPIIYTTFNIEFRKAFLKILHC
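DiscoveRx PathHunter D2 beta-arrestin cells (2,100/well) attached overnight, then compound-stimulated 90 min at 37 C in HBSS/10 mM HEPES/0.1% Tween-20 buffer; beta-galactosidase complementation read by luminescence after 1 h at ambient temperature. Dopamine 57 uM final (EC100) as control.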
gsp antagonist: qHTS for Antagonists of gsp, the Etiologic Mutation Responsible for Fibrous Dysplasia/McCune-Albright Syndrome: qHTS. gsp-mutant cells, cAMP HTRF, 30 min; control for the full effect not named in the record. Potency, µM (titrated, usually from 76.9 µM), without a hit: top-dose activity change, negative = inhibition, most hits filed as inhibitors. 340,000 compounds, 0.4% hits. AID 624288, 2012; active = falling curve of any shape with a large fitted effect; inconclusive = falling curve, mostly with a smaller effect; inactive = flat or rising curve; cell line not stated here;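 also: intracellular cAMP measured with PDE inhibitor Ro 20-1724 present during compound exposure; potency is read from the fitted curve at half-maximal effect; % is scaled to controls: 0 for no effect and ±100 for the full control effect; nearly all actives have a fitted effect of over 65% in size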
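Cells in G418 medium, seeded 16-24 h, 37C; buffer exchange to DPBS + 1 mM CaCl2, 0.5 mM MgCl2, 0.05% BSA; cpds in DMSO + […] (300 uM stock), 30 min 37C; HTRF cAMP detection.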
gsp agonist: qHTS for Agonist of gsp, the Etiologic Mutation Responsible for Fibrous Dysplasia/McCune-Albright Syndrome: qHTS; 340,000 compounds, 0.13% hits; Potency, µM (highest dose often 76.9 µM), for inactives: at the highest dose activation (cAMP increase), actives largely listed as activators; AID 624287, 2012; gsp mutant cells, cAMP HTRF, 30 min; control for the full effect not named in the record; active = well fitted activation curve with a large enough effect; inconclusive = small, poorly fitted or top-dose-only effect, or another doubt; inactive = no such curve, though single readings can be large or run the other way; cell line not stated here;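 also: phosphodiesterase inhibitor Ro 20-1724 added with compounds to block cAMP breakdown; potency is read from the fitted curve at half-maximal effect; nearly all actives have a fitted effect of over 60% in size; about a fifth of the inactives were tested at one dose only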
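Cells in DMEM/10% FBS with G418 were pretreated with compounds in DMSO plus […] (300 uM stock) for 30 min at 37C. cAMP was measured by HTRF (cAMP-d2 plus anti-cAMP antibody-K) after 30 min at room temperature.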
PINK1 modulator: A Quantitative High throughput Screen to Identify Chemical Modulators of PINK1 Expression | Potency, µM (titrated, usually from 76.6 µM), for the others: top-dose activation (PINK1 increase), most hits filed as activators | 410,000 compounds, 0.2% hits | PINK1 immunofluorescence, high-content cytometry, 24 h | AID 624263, 2012; active = well fitted activation curve with a large enough effect; inconclusive = small, poorly fitted or top-dose-only effect; inactive = flat fitted curve, though single readings scatter; cell line not stated here;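 also: potency is read from the fitted curve at half-maximal effect; % of control where 0% means no effect; nearly all actives have a fitted effect of over 65% in size; a mitochondrial uncoupler was the plate control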
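Decision-based qHTS: stable cells, 24 h exposure to five compound concentrations, CCCP as control. Fixed cells stained for PINK1 plus nuclear, mitochondrial and cell markers, cytometer read.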
Menin MLL FP FL: qHTS Assay for Inhibitors Targeting the Menin-MLL Interaction in MLL Related Leukemias: Competition With Fluorescein Labeled MLL-derived Peptide; AID 1766, 2009; Fluorescence polarization, fluorescein-MLL peptide displacement from menin; 290,000 tested, under 10 active; FP activity change, % at 61.4 µM; inconclusive = falling polarisation curve, or a change in total fluorescence; inactive = total fluorescence flat and polarisation flat or rising; no compound was filed as active; the % refers to the polarisation; negative = inhibition;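 also: % of control where 0% means no effect; inhibitors lower the polarisation; unlabelled MLL peptide was the positive control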
Sfp inh: qHTS Assay for Inhibitors of Bacillus subtilis Sfp phosphopantetheinyl transferase (PPTase); 310,000 compounds, 3.5% hits; Potency, µM, for inactives: max response, negative = inhibition, hits mostly inhibitors; 4'-phosphopantetheinyl transferase ffp (Bacillus subtilis), Q9F4F7; AID 1490, 2009; Biochemical Sfp PPTase activity, qHTS; active = well fitted inhibition curve with a large enough effect; inconclusive = small, poorly fitted or top-dose-only effect, or another doubt; inactive = no such curve, though single readings can be large or run the other way;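 also: the enzyme is Sfp with the accession as filed and its product quenches rhodamine fluorescence; potency is read from the fitted curve at half-maximal effect; 0% = enzyme reaction without inhibitor and -100% = no enzyme wells; top concentration of the series not given in the record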
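Fluorescence-quenching assay: 15 nM Sfp-PPTase preincubated 15 min at room temperature with compound, then 5 uM rhodamine-CoA and 12.5 uM BHQ-2-labelled YbbR peptide added. Fluorescence (ex 525/em 598 nm) read at start and after 30 min; difference gives rate.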
Numbers without * were called inactive; ? = inconclusive; / = not tested or not shown; [ ] = dose if it differs, or a comment.

compound	ClpP mod	D2 agonist	gsp antagonist	gsp agonist	PINK1 modulator	Menin MLL FP FL	Sfp inh
CCCCN(C=O)c1c(CC)nc2c(OCCC)cccn12	-3.9%	-3.6	/	/	0.1%	/	/
CCc1nnc(N/N=C\c2ccc(OC(C)=O)c(OC)c2)n1N	-2.8%	?	-9.0%	18.7%	-2.0%	-0.8	-26.1%
Cn1nnnc1SCC(=O)Nc1nc(-c2ccccc2)c(-c2ccccc2)o1	63.3%	-1.4	1.1%	30.1%	1.5%	-0.7	10.8%
Cc1nnc(SCc2cccc3ccccc23)s1	/	2.9	-3.9%	-8.1%[15.4 µM]	-0.1%	0.7	2.9%
COc1cc(OC)cc(C(=O)NCC(=O)OCc2cc(=O)oc3cc(OC)ccc23)c1	3.2%	-0.2	-12.0%	-0.4%	-0.8%	2.5	8.9%
COc1ccc(NC(=O)CN2C(=O)NC3(CCCCC3C)C2=O)cc1S(=O)(=O)N1CCOCC1 (stereo unspecified)	/	1.9	1.9%	-25.6%	1.5%	/	/
COc1ccc(N/C=C/C(=O)c2ccc(C)cc2)c([N+](=O)[O-])c1	-2.5%	0.1	?	-34.6%[inhibitor]	8.1%	/	/
COc1ccc(N2CCN(C(=O)COc3ccc4c(C)cc(=O)oc4c3C)CC2)cc1	-2.5%	0.8	7.4%	0.0%	-1.2%	-2.5	13.4%
Cn1c(SCC(=O)N2CCCC2)nnc1-c1cnccn1	0.0%	-1.9	5.1%	20.2%	1.4%	2.3	3.5%
Cc1cc(C)c2c(N)c(C(=O)N3CCCCCC3)sc2n1	-8.0%	-2.9	15.1%	?	0.8%	1.6	35.5µM*
Cc1cc2cc(CNC(=O)c3ccc(S(=O)(=O)N4CCOCC4)cc3)ccc2n1C	-4.3%	-0.9	1.2%	?	-0.3%	?	-16.6%
COc1ccc(C(CNC(=O)c2ccc(-n3cnnn3)cc2)N2CCOCC2)cc1 (stereo unspecified)	-2.8%	1.3	-0.3%[15.4 µM]	-1.7%	-1.6%	-1.3	4.4%
NC(=O)CSc1nnc(-c2ccc([N+](=O)[O-])cc2)o1	/	5.9	-45.6%	-9.0%[15.4 µM]	0.4%	-0.6	22.0%
Cc1cc(/C=C(/C#N)c2nc3ccccc3[nH]2)c(C)n1-c1cccc([N+](=O)[O-])c1	-2.1%	-3.0	3.9%	-28.9%	6.0%	2.4	5.1%
CC(=O)c1cccc(NC(=O)CN2C(=O)C(=O)N(Cc3ccco3)C2=O)c1	0.3%	-2.3	0.7%	0.6%	-0.3%	/	/
COC(=O)C1=C(C)N(c2cccc(OC)c2)C(=O)/C1=C\c1ccco1	-2.1%	-5.8	-13.9%	-2.6%[15.4 µM]	3.1%	2.1	-17.4%
Cc1cccc(Nc2c(F)c(F)c(F)c(F)c2C(=O)O)c1	/	-0.7	-9.6%	-0.6%	1.4%	-1.4	9.3%
COc1ccc2c(c1OC)C(=O)N(c1ccc(F)cc1)C2	/	3.0	0.4%	7.0%	0.0%	-4.2	11.6%
N#CCc1nc2ccc(S(=O)(=O)N3CCOCC3)cc2s1	/	2.4	-6.9%	-36.2%[15.4 µM]	-2.0%	?	-2.4%
Cc1ccc(C)c(N2CCN(C(=O)Cc3cn(C)c4ccccc34)CC2)c1	-10.4%	2.2	-4.8%	8.1%	-1.2%	16.5	?
CSCCC(NC(=O)c1ccccc1Br)C(=O)NNC(=O)C1COc2ccccc2O1 (stereo unspecified)	0.9%	-2.0	9.4%	-6.1%	1.3%	/	/
O=C(Cn1cnc2ccccc21)N/N=C/c1cccc([N+](=O)[O-])c1	-0.4%	0.5	8.2%	10.0%[15.4 µM]	7.7%	2.4	0.4%
COc1ccc(C(=O)O)cc1S(=O)(=O)N(C)CCc1ccccn1	/	-1.9	10.6%	-24.8%[15.4 µM]	0.3%	3.1	10.9%
C/C(=N/NC(=O)c1ccc(Br)s1)c1cccnc1	-3.0%	-3.7	4.7%	-1.8%	-0.2%	-1.4	5.8%
COCCNc1ncnc2c1ncn2[C@H]1CN(Cc2ccccc2)C[C@@H](CO)O1	-3.3%	10.7	/	/	0.3%	/	/
O=C(Nc1ccccc1)Oc1ccccc1N1CCOCC1	/	0.3	2.1%	13.4%[15.4 µM]	1.4%	1.4	15.0%
COC(=O)c1cc(OC)c(OC)c(OC)c1N	?	-2.1	21.2%	0.0%	-0.4%	1.5	-1.7%
CCC(C)NC(=O)c1nn(Cc2ccccc2)c(=O)c2ccccc12 (stereo unspecified)	/	1.3	-1.0%	10.3%[15.4 µM]	2.1%	-1.9	3.3%
COCC(C)NC(=O)c1noc2c1CCc1cc(OC)ccc1-2 (stereo unspecified)	-22.4%	1.3	-6.0%	-12.3%	4.0%[38.3 µM]	0.0	1.5%
O=C1CN(C(=O)c2ccccc2[N+](=O)[O-])C(c2ccccc2)c2cc(Br)ccc2N1 (stereo unspecified)	3.0%	-5.7	-13.4%	0.7%	1.6%	0.0	10.3%
CC(=O)N(c1ccc2oc(=O)sc2c1)S(=O)(=O)c1ccccc1	-0.9%	1.6	-2.7%	-21.8%	-1.5%	-0.5	8.91µM*
CCC(C)Nc1nnc(SCC(=O)c2c(N)n(C3CC3)c(=O)[nH]c2=O)s1 (stereo unspecified)	/	?	18.3%	-8.1%	0.9%	/	/
COC(=O)C1=C(CS(=O)(=O)c2ccc(Cl)cc2)NC(=O)NC1c1ccc(O)c(OC)c1 (stereo unspecified)	0.3%	-0.2	1.8%	18.9%	1.1%	-1.2	18.8%
Cn1cc(CNCc2ccc(-n3cccn3)cc2)c(-c2ccccc2F)n1	/	?	-3.5%	16.4%[15.4 µM]	-1.2%	-1.7	13.1%
Cc1ccc(CCNC(=O)C2CC(c3ccccc3[N+](=O)[O-])=NO2)cc1 (stereo unspecified)	0.2%	0.3	-3.5%	/	1.3%	2.2	5.0%
O=S1(=O)CCC(NC(=S)Nc2ccccc2)C1 (stereo unspecified)	/	-5.1	0.6%	-3.2%[15.4 µM]	-0.7%	5.8	20.0%
COc1cc(NC(=O)COC(=O)c2cc(S(=O)(=O)N3CCOCC3)ccc2F)cc(OC)c1	/	12.6	-6.5%	?	10.2%	/	/
O=C(CSc1nc(C(F)(F)F)cc(=O)[nH]1)NCc1ccc2c(c1)OCO2	-2.0%	-2.3	1.3%	-23.6%	1.9%	/	/
Cc1cccc(C)c1NC(=O)C1(C)c2cccc[n+]2CC(=O)N1Cc1cccs1 (stereo unspecified)	-0.2%	-4.0	4.2%	?	3.9%	1.7	?
CCCNC(=S)NNC(=O)c1cc(C2CC2)nc2ccccc12	10.6%	-9.0	1.0%	-9.9%	-0.4%	0.2	11.5%
CCOc1ccc(-c2ncncc2-c2ccc(OC)cc2)c(O)c1	-3.3%	2.5	0.3%	?	-0.7%	0.6	-0.1%
CCCn1nnnc1SCC(=O)NCc1cccs1	-2.3%	0.0	5.6%	2.5%	0.2%	2.2	11.0%
O=c1[nH]c2cc([N+](=O)[O-])ccc2c2ccccc12	-3.7%	3.3	-4.9%	30.3%	0.2%	/	/
Cc1cc(-c2sccc2Br)nc(-n2cccc2)n1	/	0.8	16.6%	19.5%[15.4 µM]	9.6%	-3.5	-15.1%
CC(Cl)C(=O)Nc1ccccc1C#N (stereo unspecified)	0.7%	-0.9	17.8%	-54.4%[inhibitor]	1.6%	2.2	14.6%
C=CCNC(=S)N1CCC(C(=O)c2ccc(OC)cc2)CC1	0.2%	0.4	-9.9%	-12.6%	-0.8%[38.3 µM]	1.0	1.0%
COc1ccccc1NC(=S)NC(=O)CCCOc1ccc(Cl)cc1Cl	-0.3%	3.4	5.2%	11.1%	/	5.7	15.4%
COc1ccccc1C1C(C(=O)c2cc3ccccc3o2)=C(O)C(=O)N1CCN(C)C (stereo unspecified)	-0.7%	1.9	1.2%	25.9%	-2.8%	18.4	-10.1%
O=C(c1ccco1)[C@@H]1[C@@H]2C(=O)N(c3ccc(Br)cc3)C(=O)[C@@H]2C2c3ccccc3C=CN21 (stereo partly specified)	-2.4%	-0.2	5.6%	16.1%	3.1%	?	-26.0%
CNC(=O)C(=O)NCC1OCCN1S(=O)(=O)c1ccc(OC)c(OC)c1 (stereo unspecified)	1.8%	-0.1	-2.2%	-0.3%	1.8%	0.3	6.2%

(more compounds)
compound	ClpP mod	D2 agonist	gsp antagonist	gsp agonist	PINK1 modulator	Menin MLL FP FL	Sfp inh
CC(C)CN1CCN(Cc2ccc(Oc3ncccn3)cc2)CC1CCO (stereo unspecified)	-1.8%	-2.5	12.7%	?	-1.3%	-0.4	15.3%
Cn1c(=O)n(CCc2ccccc2)c(=O)c2c1nc1n2CCN1Cc1ccco1	-0.6%	2.5	-10.7%	18.1%	0.2%	-1.6	10.5%
COc1ccccc1C(=O)Nc1cccc(SC)c1	-1.2%	-2.5	1.7%	28.1%	-1.7%	5.4	0.9%
O=C(c1cnccn1)N1CCC2(CC1)CCN(c1ccncc1)CC2	/	/	/	/	0.6%	-5.6	12.0%
